Screens from PubChem BioAssay.
NPYLR7 ag = mosquito NPYLR7 agonism; HEK293T NPYLR7/Galpha15, GCaMP6s calcium fluorescence; activation, % at 10 µM; 270,000 compounds, 0.15% hits; in the data active = activation above about 40%;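 note: 0% = vehicle and 100% = reference agonist at the receptor; some compounds past the cut are filed as inactive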
NPYLR7 ag max-min = recorded beside NPYLR7 ag, whose call it bears; activation, %; measured here: Max-Min RFU normalised activation; some inactives read as strong as hits;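 span of the calcium signal over five minutes; 0% = vehicle and 100% = native peptide agonist; compound fluorescence can raise it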
* = called active by the depositor; & = joins results of further samples.

A first look (4 entries):
SMILES	NPYLR7 ag	NPYLR7 ag max-min
Cc1cc(C)cc(N2C(=O)CSC2c2cccc(NC(=O)COc3ccccc3)c2)c1 (centres undefined)	13	15
CCOC(=O)c1ccc(N=C2SC(C(=O)O)CC(=O)N2C)cc1 (centres undefined)	3	1
O=C(NCC1Cc2ccccc2O1)N1CCN(C(=O)C2CCCC2)CC1 (centres undefined)	3	0
CCCCc1ncc(CN2CCN(CCC(C)C)C(CCO)C2)[nH]1 (centres undefined)	0	-4

The list itself, repeating the preview:
SMILES	NPYLR7 ag	NPYLR7 ag max-min
Cc1cc(C)cc(N2C(=O)CSC2c2cccc(NC(=O)COc3ccccc3)c2)c1 (centres undefined)	13	15
CCOC(=O)c1ccc(N=C2SC(C(=O)O)CC(=O)N2C)cc1 (centres undefined)	3	1
O=C(NCC1Cc2ccccc2O1)N1CCN(C(=O)C2CCCC2)CC1 (centres undefined)	3	0
CCCCc1ncc(CN2CCN(CCC(C)C)C(CCO)C2)[nH]1 (centres undefined)	0	-4
CNc1ncnc2c1ncn2[C@H]1C[C@H](OP(=O)(O)O)[C@@H](COP(=O)(O)O)O1	5	-40
Cc1ccc(C)c(-n2cc(CN(C)Cc3nccn3C)c(-c3ccccc3)n2)c1	1	-1
Cc1cc(C)cc(C2CC(C)(O)CC(c3cc(C)cc(C)c3)S2)c1 (centres undefined)	4	5
O=C(Cn1cc([N+](=O)[O-])ccc1=O)NCCC1=CCCCC1	6	6
COc1ncc(C(=O)N2C[C@H]3CC=C(C)C[C@H]3C2)cn1	2	-1
N#Cc1ccc(NC(=O)N2CCCN(c3nc(Cc4ccc(Cl)cc4)ns3)CC2)cc1	0	8
Cc1cc(C(=O)N2CCC3(CC2)OCc2cc(-c4ccccc4)ccc2O3)c(C)o1	-22	-24
COc1ccc(CNC(=O)Cn2nc3c(c2NC(=O)/C=C\c2ccc4c(c2)OCO4)CSC3)cc1	-3	-1
COC(=O)c1cc(CNC(=O)[C@@H]2C[C@@H]3C=C[C@H]2C3)cc(NC(=O)C2CCCCC2)c1	19	2
COc1ccc(C(=O)Nc2ccc(F)cc2F)cc1[N+](=O)[O-]	-4	-5
CCCn1nccc1NC(=O)COC(=O)CC1CCS(=O)(=O)C1 (centres undefined)	-1	-7
COc1nc2cn(CCc3ccccn3)c(O)c2cc1CNC1CCCCCC1	-2	-9
CCOc1cc2c(cc1OCC)CN(C(=O)c1cncn1-c1cccc(-c3ccc(OC)c(OC)c3)c1)CC2	8	0
CCN1CCN(c2c(CN(C(=O)NC(C)(C)C)C3CC3)c(C)nn2-c2cccc(F)c2)CC1	17	26
CCN(CC)C(=O)c1cnc2nc(C)ccc2c1Nc1ccc(F)c(Cl)c1	-5	-7
Cc1onc(-c2ccccc2)c1C(=O)N1CCN(c2ccccc2)CC1	3	3
Cc1cccc(C(=O)NC(C(=O)NCc2ccco2)C2CCN(C(=O)c3ccc(Cl)cc3)CC2)c1 (centres undefined)	-2	5
Cc1ccnc(SCCn2c(N3CCCCCC3)nc3c2c(=O)[nH]c(=O)n3C)n1	-13	-13
Cc1c(C(=O)O)sc(=S)n1-c1ccc(Cl)cc1	9	3
Cc1[nH]nc2c1C1(C(=O)Nc3ccc(Br)cc31)C(C#N)C(=N)O2 (centres undefined)	-6	-12
COC(=O)c1ccc(C(=O)N2CCN(C3c4ccccc4CCc4ccccc43)CC2)cc1	6	2
CN1CCN(C(=O)C2CSCN2C(=O)OC(C)(C)C)CC1 (centres undefined)	3	2
CN1CCN(NC(=S)Nc2ccc(SC(F)F)cc2)CC1	0	0
CC1(C(=O)NCc2ccc3c(c2)OCO3)CCN1C(=O)C1(c2ccc(Cl)cc2)CC1 (centres undefined)	2	1
COc1cccc2c1OCC([C@@H]1C[C@H]3CN(Cc4cccc(Cl)c4)C(=O)[C@]34CCCN14)=C2	2	8
Cn1cc(C(=O)NC2CC(=O)N(Cc3cccc4ccccc34)C2)cn1 (centres undefined)	6	5
CC(C)Oc1ccc2c(=O)c(-c3ccc(F)cc3)c(C(F)(F)F)oc2c1	-5	-9
COc1ccc(-c2nc(-c3ccc(-c4cccc(Cl)c4)o3)[nH]c2-c2ccc(OC)cc2)cc1	-12	-17
Cn1c(=O)[nH]c(=O)c2c1nc(N1CCN(Cc3ccc(Cl)cc3)CC1)n2CCCc1ccccc1	2	17
COC(=O)CCC1(CCC(=O)OC)C(=O)CC(C)(C)CC1=O	1	-1
COCc1c(Br)c(C)nc(OCC(=O)N/N=C\c2ccco2)c1C#N	-13	-18
O=C(NCC1CCCN(Cc2ccc(C(F)(F)F)cc2)C1)c1cccs1 (centres undefined)	8	0

Entries of single compounds, looked up by structure.
`CN1CCN(C(=O)C2CSCN2C(=O)OC(C)(C)C)CC1` (centres undefined) across the screens: NPYLR7 ag: 3; NPYLR7 ag max-min: 2
`CC1(C(=O)NCc2ccc3c(c2)OCO3)CCN1C(=O)C1(c2ccc(Cl)cc2)CC1` (centres undefined) across the screens: NPYLR7 ag: 2; NPYLR7 ag max-min: 1

The results go on.
SMILES	NPYLR7 ag	NPYLR7 ag max-min
Cc1nc(CN(C)C(=O)c2cc(CN3CCOCC3)on2)cs1	3	3
c1cncc(-c2nc3c(c(NCc4ccccc4-n4ccnc4)n2)CNC3)c1	3	2
CCOC(=O)C1=C(C(F)(F)F)NC(=S)NC1c1cccc(Oc2ccccc2)c1 (centres undefined)	-2	-7
Cc1cccc(OCc2nc(CN(C(=O)NC(C)C)C(C)C)cs2)c1	18	16
O=C(O)CN1C(=O)/C(=C\c2ccc(-c3cccc(Cl)c3Cl)o2)SC1=S	-9	-11
CC(=O)NC1=NN(C(C)=O)C2(S1)C(=O)N(CCOc1ccc(C)cc1)c1ccc(C)cc12 (centres undefined)	0	-2
COCC(=O)Nc1cc(C(=O)N2CCC(Oc3ccccc3F)CC2)c2c(c1)nc(C1CCC1)n2C	-5	-3
CCCN(Cc1ccccc1OC)C(=O)c1ccc(-c2nnn(C)n2)cc1	-4	-11
CCn1c(C2CCCN(C(=O)c3cccc4cc(C)oc34)C2)nn(C)c1=O (centres undefined)	-3	-4
CCSc1nc(NC(C)C)c2cnn(CCNC(=O)c3ccc(F)cc3F)c2n1	-3	-6
CC(NC(=O)N1CCCC(N(C)C)C1)c1nc(C2CCCCC2)no1 (centres undefined)	8	6
CCC(CC)C(=O)N1CCN(c2nccc(-c3cc(OC)c(OC)c(OC)c3)n2)CC1	3	0
OCC1(Cc2ccccc2)CCCN(Cc2cccn2-c2nccs2)C1 (centres undefined)	25	25
Cc1noc(C)c1CCC(=O)N1CCCC(C(=O)c2ccc(C(F)(F)F)cc2)C1 (centres undefined)	12	4
c1ccc(-c2nnc(NN=C3CCCCC3)c3ccccc23)cc1	1	-3
Cc1n[nH]c(C)c1CN1C[C@H](N)C[C@H]1C(=O)NC(C)C	20	10
NC(=O)c1ccnc(N2CCC(CO)(Cc3ccccc3C(F)(F)F)CC2)c1	-3	-9
O=C(CN1C(=O)c2ccc([N+](=O)[O-])cc2C1=O)Nc1nccs1	-7	-12
COc1ccc(-n2c(N)c(C#N)c3nc4ccccc4nc32)cc1OC	1	5
CN1CCNC(=O)C12CCN(C(=O)CCn1nnc3ccccc31)CC2	8	3
CCOC(=O)C1=C(C)N(C)C(=O)NC1c1ccc(OCc2ccccc2)cc1 (centres undefined)	-2	-8
O=C(C1CC2(CCNCC2)CN1)N1CCC(Oc2ccccc2F)CC1 (centres undefined)	15	5
CCNC(=O)[C@@H]1C[C@H](N)CN1C(=O)c1ccc(-c2cn(-c3ccccc3)cn2)cc1	7	4
O=C(c1ccncc1)N1CCN(C(=O)c2ccc(F)cc2)CC1	10	7
NC(=O)CCN(Cc1ccccc1)S(=O)(=O)c1ccc2c(c1)CCC2	7	7
CC1C(=O)N(c2ccc(Cl)cc2)CCN1C(=O)c1ccc(F)cc1 (centres undefined)	-2	8
COC(=O)CCc1c(C)nc2c(c1C)c(=O)n(CCC#N)n2C	9	6
Cc1ccc2c(c1)CN(C1CCSCC1)CC(c1ccsc1)O2 (centres undefined)	23	7
COc1cc(OC)cc(C(=O)Oc2coc(CSc3nc(C)cc(C)n3)cc2=O)c1	-14	-9
CC(C)(C)c1ccc(-n2c(=O)[nH]c3c(C(N)=O)nc(-c4cccc(Cl)c4)nc32)cc1	3	-2
O=C(CCc1ccccc1)N(CCn1cccn1)c1nc2ccccc2s1	-17	-14
O=C1NC(=O)C2(CCCCC2)N1	2	4
Cc1nnc(C)n1-n1ccc2nc3ccn(-c4ccccc4Cl)c(=O)c3cc2c1=O	0	21
CCOCCCNc1cc(=O)n(-c2ccccc2)nc1C(=O)OCC	6	1
C=CCn1c(-c2ccc(C(C)(C)C)cc2)n[nH]c1=S	2	44
O=C(CN(C(=O)COc1ccc(Cl)cc1)C1CC1)N1CC(=O)N(c2ccc(Cl)cc2)C1	1	13
Cc1cn2c3c(=O)n(CCCc4ccccc4)c(=O)n(C)c3nc2n1CCCn1ccnc1	3	1
CC(c1ccncc1)N(C)C(=O)Nc1ccccc1S(C)=O (centres undefined)	2	0
COCCNC(=O)c1cc(NC(=O)Nc2cccc(Cl)c2Cl)ccc1N1CCC(C)CC1	-1	11
O=C(NCC(c1cccnc1)N1CCN(Cc2ccccc2)CC1)C(=O)Nc1cccc([N+](=O)[O-])c1 (centres undefined)	3	0
NC(=O)c1ccsc1NC(=O)Cn1cnc2sccc2c1=O	5	6
COc1ccccc1C(=O)N1CCN(Cc2c(C)nc3sccn23)CC1	5	4
Cc1c(C#N)c(=O)[nH]c(=O)n1CC1CCCO1 (centres undefined)	9	13
O=C(CCC(=O)N1CCCC2(CCCCCC2)C1)N1CCOCC1	3	1
C=C1C2CC[C@]3(CCC4[C@@]5(C)CCC[C@@]4(CN(CCO)C5)[C@@H]3C2)[C@@H]1O (some centres undefined)	0	1
CNC(=O)C(=O)NCC1OCCN1S(=O)(=O)c1c(C)cc(C)cc1C (centres undefined)	-1	7
Cn1ccnc1CN(C(=O)c1cccc(-c2ccco2)c1)C1CC1	-2	-2
Cn1cc(-c2csc(C(O)(c3ccccc3)C(F)(F)F)n2)cn1 (centres undefined)	9	4
C=CCN(CC(=O)N1CCc2sccc2C1c1ccc(OC)cc1)C(=O)C(CC)CCCC (centres undefined)	14	5
CCc1nc(C)c(C(=O)NCCc2cccc(C(F)(F)F)c2)o1	28	14
CC1(C(=O)NS(=O)(=O)c2ccccc2C(F)(F)F)CCN1C(=O)c1cccc(F)c1 (centres undefined)	0	-1
Cc1c(C(=O)N(C)Cc2cnn(-c3ccccc3)c2)cnc2ccnn12	6	3
CC(C)C(C)(C#N)NC(=O)CC1CC2CCC1C2 (centres undefined)	5	3
C(=NNc1ccccc1)c1c[nH]c2ccccc12	9	10
N#Cc1cccnc1NCCOc1ccc2ccccc2c1	-8	-6
Cc1nc(C)c(CC(=O)NC(C)c2nc(C(C)C)no2)s1 (centres undefined)	-6	-5
COC(=O)c1ccc(/C=C2\SC(=Nc3c(C)cccc3C)N(c3ccccc3)C2=O)cc1	0	-2
O=C(COc1coc(CN2CCc3ccccc3C2)cc1=O)NCc1ccc2c(c1)OCO2	-2	-4
Cc1cccc(C2(C(=O)N3CCC(CC(N)=O)CC3)CCC2)c1	0	2
O=C(Nc1ncc([N+](=O)[O-])s1)c1cccs1	-18	-27

Later entries:
SMILES	NPYLR7 ag	NPYLR7 ag max-min
CC(C)(C)c1cc(C=NNC(=O)c2cnccn2)cc(C(C)(C)C)c1O	-4	-6
Cc1nnc(SCc2ccc(Cl)cc2Cl)[nH]c1=O	-1	-2
OCC1(Cc2ccccc2)CCCN(Cc2cn[nH]c2-c2cccc(F)c2)C1 (centres undefined)	10	4
Cc1ccc(C(CN2CCOCC2)NS(=O)(=O)c2c(Cl)cccc2Cl)cc1 (centres undefined)	-2	-2
COc1ccc(CCc2nnc(CCC(=O)N3CCC(c4ccc(F)cc4)C3)o2)cc1 (centres undefined)	4&-1	-1&-3
CC(c1ccccc1)N(C)C(=O)NC1CCN(C(=O)C2CC2)CC1 (centres undefined)	4	2
COc1ccccc1-c1cc(C(=O)NCCN(C)C)n2nc(-c3ccc(Cl)cc3)cc2n1	2	2
Cc1cccc(NC(=O)CCC2CCN(S(=O)(=O)c3ccc(C)s3)CC2)c1	-1	-2
CC(=O)N1CCC(C(=O)Nc2nc(SCc3ccc(Cl)cc3)n[nH]2)CC1	11	7
CC(c1ccc(S(C)=O)cc1)N(C)Cc1ccc(Cl)cc1Cl (centres undefined)	4	4
CS(=O)(=O)N1C2CCC3(CC2)OC(=O)N(Cc2ccccc2)CC13 (centres undefined)	23	28
COc1ccc(NS(=O)(=O)c2cccc3c(N(C)C)cccc23)c(C(=O)NCc2ccccc2)c1	1	-2
Cc1ccc(C)c(S(=O)(=O)N2CCC(CCc3ccc(C(F)(F)F)cc3)CC2)c1	0	1
O=c1oc2ccccc2cc1-c1csc(Nc2cccc(F)c2)n1	-5	-12
O=C1C(=O)N(CN2CCCC2c2cccs2)C(=O)N1Cc1cccs1 (centres undefined)	4	5
O=C(NC1C2CC3CC(C2)CC1C3)C1CCC(=O)N(CCCc2ccccc2)C1 (centres undefined)	4	2
Cc1ncsc1CCS(=O)(=O)CC1CCCO1 (centres undefined)	-2	-5
Cc1nc(-n2ccc3nc4ccn(-c5ccccn5)c(=O)c4cc3c2=O)n[nH]1	0	-7
Cc1cc(-c2csc(NC(=O)Cc3c(C)noc3C)n2)c(F)cc1F	-11	-11

Nothing new here: an excerpt of the list.
SMILES	NPYLR7 ag	NPYLR7 ag max-min
Cc1ccc(C)c(S(=O)(=O)N2CCC(CCc3ccc(C(F)(F)F)cc3)CC2)c1	0	1
O=c1oc2ccccc2cc1-c1csc(Nc2cccc(F)c2)n1	-5	-12
O=C1C(=O)N(CN2CCCC2c2cccs2)C(=O)N1Cc1cccs1 (centres undefined)	4	5
O=C(NC1C2CC3CC(C2)CC1C3)C1CCC(=O)N(CCCc2ccccc2)C1 (centres undefined)	4	2
Cc1ncsc1CCS(=O)(=O)CC1CCCO1 (centres undefined)	-2	-5
Cc1nc(-n2ccc3nc4ccn(-c5ccccn5)c(=O)c4cc3c2=O)n[nH]1	0	-7
Cc1cc(-c2csc(NC(=O)Cc3c(C)noc3C)n2)c(F)cc1F	-11	-11

The list is partial, so the mix of outcomes need not match the whole.
